OX1R antag: human HCRTR1 antagonism; AID 434989; hit rate 0.43% among 330,000; inhibition, % at 5 µM; CHO/OX1R cells, Fluo-8 calcium fluorescence, orexin A; O43613;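 active = inhibition above its plate's threshold, mean inhibition of all tested compounds on the plate plus 3 SD, cut at about 37% in these data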;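 note: 0% = orexin A challenge wells and 100% = SB-334867-A antagonist wells; not every result past the cut was called active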
Target sequence (O43613 whole entry, looked up): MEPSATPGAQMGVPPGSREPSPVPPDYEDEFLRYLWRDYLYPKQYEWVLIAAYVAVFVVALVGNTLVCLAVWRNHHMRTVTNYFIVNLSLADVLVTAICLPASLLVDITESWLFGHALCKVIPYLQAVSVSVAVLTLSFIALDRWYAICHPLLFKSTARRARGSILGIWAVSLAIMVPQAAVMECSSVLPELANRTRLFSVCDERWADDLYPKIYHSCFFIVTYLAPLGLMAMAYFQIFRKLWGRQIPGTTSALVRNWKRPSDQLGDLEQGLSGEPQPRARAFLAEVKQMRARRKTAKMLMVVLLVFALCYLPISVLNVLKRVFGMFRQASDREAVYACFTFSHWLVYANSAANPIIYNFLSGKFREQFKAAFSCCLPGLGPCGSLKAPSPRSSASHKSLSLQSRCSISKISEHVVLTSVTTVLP
* = called active by the depositor. A portion of the library, and most or all hits are left out here.

OX1R antag	SMILES
-12.4	Cc1cc(NC(=O)COC(=O)Cn2c(C)csc2=O)ccc1Br
-14.7	O=c1c(Cc2ccc(Cl)cc2)c(O)ccn1Cc1ccncc1
-9.7	COc1ccc(C(=O)CC2OC(=O)c3c2ccc(OC)c3OC)cc1 (configuration not stated)
-13.4	CSc1ccc(CCNC(=O)c2cc(C)nn2-c2ccccc2)cc1
-25.5	COc1ccc(NC(=O)CCNC(=O)Cn2cnc3ccccc3c2=O)c(OC)c1
-5.0	Cc1ccccc1Cn1ccc(-c2ccc3c(c2)OCO3)n1
-12.4	CC(=O)N1CCc2cc(S(=O)(=O)NCCC(=O)NCCc3ccc(C)cc3)ccc21
-8.4	COCCn1c(SCC(=O)N2CCCC(C)C2)nnc1-c1ccco1 (configuration not stated)
-0.8	Cc1ccsc1C(=O)N1CCC(N2CCC(C(=O)NCC3CCCO3)CC2)CC1 (configuration not stated)
-29.2	O=c1[nH]c2cc3c(cc2cc1CN(Cc1cccnc1)C(=S)NCc1ccco1)OCCO3
-5.8	O=C(Cc1ccc(Cl)cc1)Nc1ccc(S(=O)(=O)N2CCOCC2)cc1
-0.8	CCOP(=O)(O)c1ccccc1OCCCCCOc1ccccc1P(=O)(O)OCC
-11.4	Cc1cccc(C)c1NC(=O)Nc1ccccc1-n1ccnc1
-4.4	O=C(Nc1nnc(CCS(=O)(=O)c2ccc3ccccc3c2)s1)c1cccs1
-25.9	O=C(c1ccc(N2CCCC2)c([N+](=O)[O-])c1)N1CCN(S(=O)(=O)c2ccc(Cl)cc2)CC1
4.2	Cc1ccc(OCC(=O)Nc2nnc(S(=O)(=O)N3CCCCCC3)s2)cc1
-6.9	CCOC(=O)C1=C(C)NC(=O)C1CC(=O)Nc1ccccc1 (configuration not stated)
-7.1	COc1ccc(CNC(=O)CN(c2ccc(OC)cc2)S(=O)(=O)c2c(C)[nH]c(=O)[nH]c2=O)cc1
-3.4	CC(C)(C)NC(=O)c1ccc(NC(=O)C2COc3ccccc3O2)cc1 (configuration not stated)
-34.3	COc1cc(NS(=O)(=O)N2CCCC2)cc(OC)c1OC
-27.5	COC(=O)c1ccc(CN2CCC(CO)(Cc3ccc(OC)cc3)CC2)cc1
-8.2	COC(=O)CCC(=O)OC1(C)C(=O)C=C2C=C(C3CC3)OC=C2C1=O (configuration not stated)
-23.4	S=C(NCCc1ccccc1)N/N=C/C1CCCCC1
-0.2	NC1C=CC=C(C(=O)O)C1 (configuration not stated)
-0.4	COCCNC(=O)/C(C#N)=C/c1ccc2c(c1)OCO2
-27.0	Cc1csc(NC(=O)C(CC(C)C)NS(=O)(=O)c2ccc3c(c2)oc(=O)n3C)n1 (configuration not stated)
-9.2	Cc1ccc(C(=O)n2c(-c3ccccc3)cnc2SCC(=O)Nc2ccccc2)cc1
-3.0	CCn1ncc(C(=O)Nc2cc(C)on2)c1C
-6.4	Cc1ccccc1OCC(=O)Nc1ccc2c(c1)OCO2
-21.9	O=C(CSc1nnnn1C1CCCCC1)NCc1ccc2c(c1)OCO2

Part of the list above in order of number of heavy atoms, rising.
OX1R antag	SMILES
-0.2	NC1C=CC=C(C(=O)O)C1 (configuration not stated)
-14.7	O=c1c(Cc2ccc(Cl)cc2)c(O)ccn1Cc1ccncc1
-7.1	COc1ccc(CNC(=O)CN(c2ccc(OC)cc2)S(=O)(=O)c2c(C)[nH]c(=O)[nH]c2=O)cc1

New compounds follow
OX1R antag	SMILES
-25.8	C=CCN(C(=O)CSc1nc2[nH]ncc2c(=O)n1-c1ccccc1OC)c1ccccc1
-13.7	CCc1cccc(C)c1NC(=O)C(c1ccc(O)cc1)N1CCC1=O (configuration not stated)
-15.6	COc1cc(CNc2ccc(N3CCCC3)cc2)cc(Cl)c1OC
-11.6	CCCCN(C)CCNC(=O)c1cc2c(-c3cccc(OC)c3)nn(C)c2s1
-7.8	COCCn1c(=NC(=O)c2ccccc2[N+](=O)[O-])sc2cc(S(C)(=O)=O)ccc21
-12.0	CN(C)CCCC(=O)c1ccc2c(c1)OCO2
-7.0	CCCCN(C(=O)Cn1nnc2ccccc21)C(C(=O)NCc1ccco1)c1ccncc1 (configuration not stated)
4.9	CC(CCc1ccccc1)NC(=O)CSc1cccc[n+]1[O-] (configuration not stated)
-6.7	CCOCCCNC(=O)CCSc1ccc(C)cc1
-24.7	O=S(=O)(NCc1cc(-c2ccccc2Cl)no1)c1ccc(Cl)cc1
-24.5	Cc1c(NC(=O)c2nn(C)c(=O)c3ccccc23)c(=O)n(-c2ccccc2)n1C
13.8	COC(=O)c1ccc(N2CCCCC2)c(NS(=O)(=O)c2ccc(C)cc2)c1
-5.6	CCCC(=O)O/N=C(\c1ccccc1)c1ccncc1
-33.7	COc1ccc(CNCC(O)(c2ccccc2)c2ccccc2)cc1
-6.6	O=c1[nH]c2cc(Cl)ccc2c(O)c1-c1cccc(Oc2ccccc2)c1
-2.6	O=C(c1cccc(NC2=NC3CS(=O)(=O)CC3S2)c1)N1CCN(c2cccc(Cl)c2)CC1 (configuration not stated)
-18.8	COc1cccc(C(=O)Nc2ccc(N3CCN(Cc4ccccc4)CC3)cc2)c1
-16.9	CC(=O)c1ccc(NC(=O)CNCC(c2ccccc2)N(C)C)cc1 (configuration not stated)
-18.1	CC(=O)Nc1ccc(-c2ccnc(-c3ccc(NC(C)=O)cc3)n2)cc1
1.4	CCOCCCNC(=O)C1CCN(S(=O)(=O)CC)CC1
-7.2	O=C(c1ccco1)N1CCN(CC(O)COc2ccc3oc4ccccc4c3c2)CC1 (configuration not stated)
-1.6	O=C(NC1CCCCC1)C(c1cccnc1)N(C(=O)CCl)c1cccc(Cl)c1 (configuration not stated)
-15.3	Cc1ccccc1NNC(=O)C(=O)NNc1ccccc1C
-1.5	CCCOc1ccc(C2C(C(=O)c3cc4ccccc4o3)=C(O)C(=O)N2c2cc(C)on2)cc1OC (configuration not stated)
-13.1	CCc1nn(-c2cc(Oc3cccc4ccccc34)nc(-c3ccccc3)n2)c(N)c1C#N
-26.0	Cc1ccc(-n2c(C)c(C)c3c(NCCN(C)C)ncnc32)cc1
-28.5	COc1ccc2cc(CN(Cc3cccs3)Cc3nnnn3Cc3ccccc3)c(=O)[nH]c2c1
-32.2	CCC1Oc2ccc(C)cc2N(CC(=O)NCCC2=CCCCC2)C1=O (configuration not stated)
-9.5	CCC(=O)Nc1nc(C)nc(C)c1C(C)=O
-21.8	CC1(C)CC(=O)c2cn3c(nc2C1)nc1ccccc13

Six entries from above, sorted by their value in OX1R antag, highest first:
OX1R antag	SMILES
-0.8	CCOP(=O)(O)c1ccccc1OCCCCCOc1ccccc1P(=O)(O)OCC
-1.5	CCCOc1ccc(C2C(C(=O)c3cc4ccccc4o3)=C(O)C(=O)N2c2cc(C)on2)cc1OC (configuration not stated)
-9.5	CCC(=O)Nc1nc(C)nc(C)c1C(C)=O
-13.7	CCc1cccc(C)c1NC(=O)C(c1ccc(O)cc1)N1CCC1=O (configuration not stated)
-23.4	S=C(NCCc1ccccc1)N/N=C/C1CCCCC1
-33.7	COc1ccc(CNCC(O)(c2ccccc2)c2ccccc2)cc1

Next section.
OX1R antag	SMILES
-31.1	COc1cccc(NC(=S)N/N=C2\CC3CCC2(C)C3(C)C)c1 (configuration not stated)
13.5	COc1cc(OC)cc(C(=O)NCCCN2CCOCC2)c1
-23.1	Cc1cc(C)cc(NC(=S)NCc2ccc3[nH]c4c(c3c2)CCCC4)c1
-18.2	COc1ccc(-c2nn(-c3ccccc3F)cc2CNCCn2nc(C)cc2C)cc1
-40.6	CCCCCCCNC(=O)C1(CC2CC(c3ccc(Cl)cc3)=NO2)CCN(C(=O)CCCCCBr)CC1 (configuration not stated)
-1.0	CN(C(=O)COC(=O)c1ccc(S(=O)(=O)N2CCOCC2)cc1)C1CCCCC1
-24.4	O=C(Cc1csc(NC(=O)Nc2ccc(Cl)cc2)n1)NCc1cccnc1
-37.8	Cn1nc(-c2ccccc2)c(CSc2ccccc2Cl)c1Cl
6.8	COc1ccc(NC(=O)CSc2nc(C)cs2)c(OC)c1
-12.3	COc1ccc(NC(=O)Cc2coc3cc(C)ccc23)cn1
-10.5	O=S(=O)(c1ccc(Cl)s1)N1CCC2(CC1)OCCO2
-2.6	C#CCO[C@@H]1C[C@H](n2cnc3c(=O)[nH]c(NC(=O)C(C)C)nc32)O[C@@H]1CO
-0.9	CCC(CC)C(=O)Nc1c2c(nn1-c1ccc(C)cc1)CS(=O)(=O)C2
0.9	NC(=S)N/N=C1\CC(n2nnnc2-c2ccccc2)C2COC1O2 (configuration not stated)
-35.0	CCOc1ccccc1OCCOCCOc1c(Cl)cccc1Cl
-8.7	CCCCC1=CC2=CC(=O)C(C)(OC(=O)c3cnc4ccccc4n3)C(=O)C2=CO1 (configuration not stated)
-13.6	CCC(CC)C(=O)Nc1cccc(C(=O)N2CCCCCC2)c1
-22.6	CCn1nnc(-c2ccccc2NC(=O)c2cccc(-n3cnnn3)c2)n1
-9.5	Cc1nc2ccccn2c1C(=O)NN=C1CCCC1
0.9	CCN(CC)CCNC(=O)CCc1nn(C)c(=O)c2ccccc12
-17.5	COC(=O)[C@H]1C[C@H]1[C@@H](NC(=O)c1cccnc1)c1ccccc1
-9.9	Cc1ccnc(NC(=O)c2cccc(S(=O)(=O)N3CCCC3)c2)c1
-3.3	Cc1cccc(C(=O)NCc2nnc(SCc3ccc(F)cc3)n2C)c1
-16.0	CCOc1ccc(CCNC(=O)c2nnn(CC(=O)Nc3c(C)cc(C)cc3C)c2N)cc1OCC
-10.2	C=C(C)CN(CC)C(=O)CC1C(=O)NCCN1Cc1c(F)cccc1Cl (configuration not stated)
4.6	Cc1c(F)cccc1NS(=O)(=O)c1ccccc1C#N
-18.5	Cc1ccc(S(=O)(=O)N2CCN(CC(=O)NC(=O)NCc3ccccc3)CC2)cc1C
-24.4	CCOc1ccc(Nc2nc(Nc3ccc(O)cc3)nc(C)c2[N+](=O)[O-])cc1
-11.9	CN(CCOc1ccc(Br)cc1)CC(O)c1ccccc1 (configuration not stated)
-15.5	CCOc1cc(C(=O)NCc2ccc(-c3nc4ccccc4o3)cc2)cc(OCC)c1OCC
1.6	CC(Sc1cccc(C(F)(F)F)c1)C(=O)NC(N)=O (configuration not stated)
-28.2	CC(OC(=O)c1ccc(C(C)(C)C)cc1)C(=O)NC1CCCCC1C (configuration not stated)
-18.6	Cc1ccc(CNC(=O)c2nnn(-c3cccc(C)c3)c2N)cc1
-25.2	O=C(Nc1ccccc1OC(F)F)c1cc2c(s1)CCC2
-31.1	CCOC(=O)c1sc2ncnc(NCC(c3cccs3)N(C)C)c2c1C (configuration not stated)
-6.8	CC(=O)c1ccc(Nc2nc(N3CCOCC3)nc(N3CCOCC3)n2)cc1
-2.7	Clc1nc(Oc2ccccc2)nc(-c2cn(-c3ccccc3)c3ccccc23)n1
10.4	C=CCOC(=O)C1=C[C@@H](c2ccc3c(c2)OCO3)C[C@@H](OCc2ccc(CO)cc2)O1
-10.2	O=C(CCNC(=O)N1CCn2c1nc1ccccc12)NCc1ccc(F)cc1
-9.1	O=C(O)COc1ccc(F)cc1Br
-13.1	COc1cc(NC(=O)NCc2ccncc2)cc(OC)c1OC
-5.0	CCOc1ccccc1C(=O)NCC(=O)NCCCSc1ccccc1
-17.4	O=C(Nc1nnc(Cc2ccc([N+](=O)[O-])cc2)s1)Nc1ccccc1F
-31.1	Cc1ccc(CNC(=O)CCCCCNc2nc(=S)[nH]c3ccccc23)cc1
11.8	O=C(NC(=Nc1ccccc1)N1CCOCC1)Nc1ccccc1
-13.6	COCc1cc(Sc2ccc(Br)cc2)nc(-c2ccccc2)n1
-6.2	CCOc1cccc(C2C(C#N)=C(N)Oc3cc(C)oc(=O)c32)c1OCC (configuration not stated)
-24.7	COc1ccc(CNC(=O)COC(=O)/C=C/c2cccc(Br)c2)cc1OC
-19.8	CSCCC(NC(=O)COc1ccccc1)C(=O)OCC(=O)c1cc2ccccc2o1 (configuration not stated)
0.5	CS(=O)(=O)N1CCC(C(=O)Nc2cccc(F)c2)CC1
-9.7	CN1CCN(S(=O)(=O)c2ccc(-c3ccc(Cl)cc3)cc2)CC1
-27.6	O=C(c1ccc2c(=O)n3c(nc2c1)CCCCC3)N1CCCCC1
-8.7	CN(C)c1ccc(NC(=O)Nc2cccc3ccccc23)cc1
-12.7	Cc1ccccc1C(=O)Nc1nnc(SCC(=O)NCc2ccco2)s1
-22.5	Cc1ccc2c(c1)C1CC(C)(O2)N(c2cccc(C(=O)NCc3ccccn3)c2)C(=O)N1 (configuration not stated)
-14.6	CCOCCCNC(=S)N(Cc1ccccc1)Cc1nc2ccccc2c(=O)[nH]1
-36.5	CCOc1cc(C(=O)N/N=C/C2CC=CCC2)cc(OCC)c1OCC (configuration not stated)
-33.5	C=CCNC(=O)CSc1nnc(-c2ccccc2Br)n1-c1cccc(C(F)(F)F)c1
-0.4	O=C(O)C1CCCCC1C(=O)N1CCCC1 (configuration not stated)
0.1	Cc1nn(CC(=O)N2CCOCC2)c(=O)c2c1sc1ccccc12

The results go on:
OX1R antag	SMILES
-19.2	COc1ccc(C2Cc3ccccc3C(=O)O2)cc1 (configuration not stated)
-17.3	COc1ccc2nc(NC(=O)c3cccc(-c4cc5ccccc5oc4=O)c3)sc2c1
-14.0	O=C(C1CCN(S(=O)(=O)c2ccccc2)CC1)N1CCOCC1
-9.9	Cc1cc(C=NCCO)c(C)n1-c1cc(Cl)ccc1Cl
-9.5	COc1ccccc1CNC(=O)COC(=O)Cc1c(F)cccc1Cl
-21.8	CC1CCCC(NC(=O)CSc2nnc(N)s2)C1C (configuration not stated)
-0.7	COc1cccc(C(=O)NCCNC(=O)c2ccco2)c1
-2.1	O=C1/C(=C\c2ccccc2Cl)SC(=S)N1CCC(=O)N1CCCc2ccccc21
-11.4	O=C(NCc1ccccc1Cl)C1CCN(c2ncnc3c2nc2n3CCCCC2)CC1
-0.7	CC1CCC(C(C)C)C(OC(=O)CSc2n[nH]c(=O)[nH]c2=O)C1 (configuration not stated)
-17.6	O=C(CCC(=O)N1CCSc2ccccc21)NCCc1ccccc1
-17.6	CN1CCN(c2ccccc2/C=N/NC(=O)c2cccnc2)CC1

In the list so far, these have a nitro group on carbon:
OX1R antag	SMILES
-25.9	O=C(c1ccc(N2CCCC2)c([N+](=O)[O-])c1)N1CCN(S(=O)(=O)c2ccc(Cl)cc2)CC1
-7.8	COCCn1c(=NC(=O)c2ccccc2[N+](=O)[O-])sc2cc(S(C)(=O)=O)ccc21
-24.4	CCOc1ccc(Nc2nc(Nc3ccc(O)cc3)nc(C)c2[N+](=O)[O-])cc1
-17.4	O=C(Nc1nnc(Cc2ccc([N+](=O)[O-])cc2)s1)Nc1ccccc1F

Screening data (PubChem BioAssay)
